Lassa entry inh = qHTS for Inhibitors of binding or entry into cells for Lassa Virus; Lassa virus pseudotype entry inhibition, cell reporter; control for the full effect not named in the record; Potency, µM (top dose mostly 37.9 µM), without a hit: at the top dose activity change, negative = inhibition, most hits filed as inhibitors; actives 1.2% (n = 300,000); AID 540256, 2011; active means well fitted inhibition curve with a large enough effect; inconclusive means small, poorly fitted or top-dose-only effect, or effect the other way; inactive means flat fitted curve, though single readings scatter; tested in HEK293 cells; further: on the % scale 0 is the no-effect control and ±100 the full control effect; nearly all actives have a fitted effect of over 50% in size; luciferase read-out
Cruzain inh noDet = qHTS Assay for Promiscuous and Specific Inhibitors of Cruzain (without detergent) | AID 1476, 2009 | actives 2.3% (n = 200,000) | purified cruzain, Z-FR-AMC fluorescence, no detergent | Potency, µM, for inactives: max response, negative = inhibition, usual class: inhibitors;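 further: plate controls were enzyme without inhibitor for no effect and buffer without enzyme for full effect; nearly all actives have a fitted effect of over 40% in size; top concentration of the series not given in the record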
Target sequence (P25779 123-467 limits assumed): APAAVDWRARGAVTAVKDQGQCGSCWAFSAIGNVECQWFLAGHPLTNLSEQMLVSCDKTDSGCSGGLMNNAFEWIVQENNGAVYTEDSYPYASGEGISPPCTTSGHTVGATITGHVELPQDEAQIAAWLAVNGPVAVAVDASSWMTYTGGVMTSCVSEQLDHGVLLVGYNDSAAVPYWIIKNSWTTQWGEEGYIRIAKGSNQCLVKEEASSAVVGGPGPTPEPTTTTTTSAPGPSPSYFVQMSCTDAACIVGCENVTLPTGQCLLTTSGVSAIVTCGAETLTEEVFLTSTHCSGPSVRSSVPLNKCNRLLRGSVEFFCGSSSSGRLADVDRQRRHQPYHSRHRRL
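Detergent-free condition (0.00005% Triton X-100) in acetate buffer pH 5.5 with DTT. 1.5 nM enzyme and compound were pre-mixed 15 min, then 2 uM Z-FR-AMC substrate added; reaction progress from fluorescence change between first and third reads (60 s).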
SARS PLP yeast = qHTS of Yeast-based Assay for SARS-CoV PLP; S. cerevisiae expressing SARS-CoV PLpro, growth rescue; control for the full effect not named in the record; Potency, µM (doses to about 32.9 µM), for inactives: at the top dose activity, positive = growth rescue; actives 0.19% (n = 330,000); AID 485353, 2010; active means well fitted rising curve with a large enough effect; inconclusive means small, poorly fitted or top-dose-only effect; inactive means no such curve, though single readings can be large or run the other way; further: 0% is about no effect; nearly all actives have a fitted effect of over 55% in size; growth read by luminescence after 48 h
NS1 function inh = qHTS Assay for Inhibitors of Influenza NS1 Protein Function; actives 0.4% (n = 270,000); S. cerevisiae slowed by influenza A NS1, growth recovery by OD600; AID 2326, 2010; Potency, µM (series often up to 46.1 µM), for the others: top-dose activity, positive = more growth; active means well fitted rising curve with a large enough effect; inconclusive means small, poorly fitted or top-dose-only effect; inactive means no such curve, though single readings can be large or run the other way; further: nearly all actives have a fitted effect of over 50% in size
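Growth recovery, yeast-based: influenza A NS1 expressed in S. cerevisiae causes slow growth, and suppressors are detected by OD600. The parent strain without NS1 is used as positive control.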
Cruzain Triton = qHTS Assay for Promiscuous and Specific Inhibitors of Cruzain (with detergent). Cruzipain (Trypanosoma cruzi), P25779. purified cruzain, Z-FR-AMC fluorescence, 0.01% Triton. Potency, µM, inactives show max response, negative = inhibition, most hits filed as inhibitors. actives 0.43% (n = 200,000). AID 1478, 2009;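 further: plate controls were neutral wells for no effect and buffer without enzyme for full effect; nearly all actives have a fitted effect of over 40% in size; top concentration of the series not given in the record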
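Purified cruzain (1.5 nM final) was preincubated with compounds for 15 min at room temperature in 100 mM sodium acetate pH 5.5, 5 mM DTT, 0.01% Triton X-100. Reaction started with 2 uM Z-FR-AMC; AMC fluorescence change over 60 s gave activity.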
RE007 growth inh = qHTS Assay for Inhibitors of the HIV-1 protein Vpr | S. pombe RE007 Vpr strain, BacTiter-Glo ATP luminescence, 24 h; control for the full effect not named in the record | Potency, µM (top dose mostly 92.2 µM), for inactives: at the highest dose activity change, negative = less growth | actives 0.21% (n = 360,000); active = well fitted falling curve with a large enough effect; inconclusive = small, poorly fitted or top-dose-only effect; inactive = no such curve, though single readings can be large or run the other way;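 further: on the % scale 0 is the no-effect control and ±100 the full control effect; nearly all actives have a fitted effect of over 50% in size; the assay follows cell death caused by Vpr and the record does not say whether a fall means rescue or toxicity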
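Fission yeast RE007 carrying one integrated HIV-1 vpr copy, seeded at OD 0.01 in PMG+AL medium with 23 nL pinned compound. Grown 24 h at 30 degrees; viability read by BacTiter-Glo luminescence after 5 min.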
MARV entry inh = qHTS for inhibitors of binding or entry into cells for Marburg Virus; AID 540276, 2011; Marburg virus pseudotyped entry inhibition, cell reporter; control for the full effect not named in the record; about a third of the inactives were read at about 46 µM; Potency, µM (doses to about 37.8 µM), inactives show top-dose activity change, negative = inhibition, most hits filed as inhibitors; actives 1.8% (n = 300,000); active = well fitted inhibition curve with a large enough effect; inconclusive = small, poorly fitted or top-dose-only effect, or effect the other way; inactive = flat fitted curve, though single readings scatter; tested in HEK293 cells; about a fifth of its hits are not listed in these tables; further: on the % scale 0 is the no-effect control and ±100 the full control effect; luciferase read-out
2A StopGo = High Throughput Screening for Foot and Mouth Disease Virus Antivirals | Potency, µM (doses to about 57.9 µM), for inactives: at the highest dose signal change, negative = less light | human cells with a luciferase reporter of 2A StopGo recoding; control for the full effect not named in the record | actives 1.2% (n = 410,000) | AID 1159524, 2015; active = well fitted falling curve with a large enough effect; inconclusive = small, poorly fitted or top-dose-only effect; inactive = no such curve, though single readings can be large or run the other way; tested in HEK293T cells; further: on the % scale 0 is the no-effect control and ±100 the full control effect; nearly all actives have a fitted effect of over 45% in size; luciferase light after 4 h
Numbers without * were called inactive; ? = inconclusive; . = no result given; [ ] = dose if it differs, or a comment. Unless noted, the call rests on the fitted dose curve; in most records, active means well fitted curve in the direction sought with a large enough effect; inconclusive means small, poorly fitted or top-dose-only effect, or another doubt; inactive means no such curve, though single readings can be large; an effect the other way counts as inactive or inconclusive. Potency means the concentration at half of the fitted maximal effect.

compound	Cruzain Triton	Lassa entry inh	MARV entry inh	2A StopGo	NS1 function inh	SARS PLP yeast	Cruzain inh noDet	RE007 growth inh
O=C1NC2(CCCCC2)C(=O)N1/N=C/c1ccc(O)cc1O	0.9%	10%	?	41%[activator]	?	4%	19%	-14%
CCOC(=O)Cn1c(=O)n(C2CCCCC2)c2nc(-c3ccc(Cl)cc3)nc(C(N)=O)c21	-0.7%	-1%[46.1 µM]	.	-11%	.	.	3%	.
Cc1cnnc2c1-c1no[n+]([O-])c1CC2	-0.7%	-25%[14.3 µM]	17%	25%	-1%	.	1%	2%
CCNc1nc(SCc2ccccc2)nc(N2CCOCC2)n1	-10%	?	?	-15%	-48%	-5%	2%	-15%
O=C(NCCN1CCN(c2ccccc2)CC1)c1ccc2c(c1)[nH]c(=S)n1c3ccccc3nc21	.	-22%	?	-8%	.	0%	.	-4%
COc1ccc(NS(=O)(=O)c2c(C)n(C)c(=O)n(C)c2=O)cc1OC	2.9%	.	.	-5%	?	-16%	-4%	18%
CCn1cc(C(=O)NCCc2ccccc2)c(=O)c2cc(S(=O)(=O)N(C)C)ccc21	.	3%[46.1 µM]	19%[46.1 µM]	6%	2%	2%	.	7%
COc1ccc(-n2nc(C(=O)NCC(=O)N3CCN(C)CC3)c3ccccc3c2=O)cc1	.	.	-1%[46.1 µM]	17%	-12%	1%	.	-9%
C/C=C/C(=O)OCC(=O)Nc1ccc(SC(F)F)cc1	.	-36%	-7%[46.1 µM]	9%	.	-8%	.	2%
COc1ccc(/C=N\NC(=O)c2ccccc2F)cc1COc1ccc(F)cc1	.	-18%[46.1 µM]	?	-17%	-3%	-7%	.	-4%
C/C=N/NC(=O)CCNC(=O)c1ccccc1	0.8%	2%	6%	-8%	?	-11%	-4%	0%
CCn1nc(NC(=O)c2ccco2)c2cc3ccc(C)cc3nc21	-3.4%	-16%	?	-10%	-12%	-3%	?	5%
O=C(COC(=O)CN1C(=O)NC2(CCCC2)C1=O)Nc1ccccc1C(F)(F)F	.	0%	-2%[46.1 µM]	0%	.	2%	.	-7%
Cc1cc(=O)[nH]c2ccc(Cl)cc12	-1.8%	0%	12%[46.1 µM]	4%	4%	5%	?	6%
COc1ccc(O)c(C(=O)c2cnc3c(c2)c(=O)[nH]c(=O)n3C)c1	-2.2%	17%	0%	2%	6%	-6%	-9%	1%
CN(C)S(=O)(=O)c1cccc(NC(=O)CNCC2CCCCC2)c1	.	-10%	?	48%[activator]	.	0%	.	5%
Cc1ccc(C(C)C)cc1S(=O)(=O)Nc1ccncc1	.	.	.	79%[activator]	0%	0%	.	-4%
Cc1ccc(SCC(=O)Nc2ccc3c(c2)OCCO3)cc1	-5.0%	?	?	25%	-5%	0%	-6%	26%
COc1ccccc1/C=C/C=N/n1c(-c2ccncc2)n[nH]c1=S	-10%	-23%	?	52%[activator]	17%	21%	-27%	8%
COc1ccc(CCNC(=O)CNC(=O)c2ccccc2Br)cc1OC	.	-7%	13%[46.1 µM]	-7%	1%	1%	.	0%
Nn1cnn(Cc2ccccc2)c1=S	5.4%	-5%	?	12%	1%	5%	-4%	9%
COc1ccccc1OCCN1C(=O)S/C(=C\c2ccco2)C1=O	-8.0%	6%	35%	-23%	-14%	-6%	-4%	?
CS(=O)(=O)N1CCN(c2ccc(NC(=O)c3ccc(Br)o3)cc2)CC1	3.8%	?	4%	34%[activator]	-4%	8%	?	-6%
COc1ccc(C(=O)N2N=C(c3cccs3)CC2c2ccccc2O)cc1 (centres undefined)	.	?	?	0%	-26%	-10%	.	20%
COc1ccc(C(CCNCc2ccccc2F)c2ccc(F)cc2)cc1 (centres undefined)	3.4%	?	?	57%[activator]	5%	?	2%	.
COc1ccc(-n2c(=S)[nH]c3cc(C(=O)N(C)Cc4ccccc4)ccc3c2=O)cc1	.	.	-28%[46.1 µM]	14%	-8%	0%	.	16%
COC(=O)c1cc(OC)c(OC)cc1NC(=O)Nc1ccccc1OC	-4.4%	0%	10%	-3%	-24%	0%	?	0%[3.69 µM]
CCCCn1c(N)c(N(Cc2ccccc2OC)C(=O)C(C)Oc2ccc(Br)cc2)c(=O)[nH]c1=O (centres undefined)	.	-16%	17%	-25%	.	.	.	-16%
COCC(C)NC(=O)c1cc(S(=O)(=O)N2CCCCC2)ccc1N1CCOCC1 (centres undefined)	.	0%	-3%	-13%	2%	4%	.	-1%
Cc1cc(C)c2nc(N3CCCC3)c(C#N)cc2c1	-6.4%	11%	-1%	26%	-6%	-3%	5%	3%
O=C(CSc1c2c(nc3cc(Cl)ccc13)CCCC2)NCc1ccco1	-8.4%	-2%	?	?	-55%	-4%	-10%	16%
COc1ccc(/C=N\NC(=O)c2nn(C)cc2Cl)cc1CN1CCOCC1	-7.1%	-1%	11%	1%	-7%	2%	-1%	-5%
C(=N\N1CCN(Cc2cccc3ccccc23)CC1)/c1cccs1	.	4%	-18%[46.1 µM]	-18%	-4%	-1%	.	0%
O=C(NCCCCCCNC(=O)c1ccncc1)c1ccncc1	.	.	.	1%	3%	-5%	.	-3%
Cc1ccc(/C([O-])=C(/C(=S)NCc2ccccc2)[n+]2cccc(CO)c2)cc1[N+](=O)[O-]	.	19%[46.1 µM]	9%[46.1 µM]	17%	.	-3%	.	-9%
NS(=O)(=O)c1ccc(NC(=S)N2CCN(c3cccc(Cl)c3)CC2)cc1	-4.3%	-1%	0%	?	1%	-1%	7%	-1%
COc1ccccc1C(=O)N1CCNC(=O)C1CC(=O)Nc1cccc(C)c1 (centres undefined)	-1.1%	0%	24%	.	6%	27%	7%	4%
CCOC(=O)c1ccc(NC(=O)c2c(-c3c(F)cccc3Cl)noc2C)cc1	-5.9%	?	-20%[46.1 µM]	?	.	.	5%	.
CCN(CC(=O)NCc1ccc(F)cc1)C(=O)CN1CCN(c2ccccc2OC)CC1	.	4%	-5%[46.1 µM]	-6%	3%	-9%	.	-25%
COc1cccc(COc2ccc3c(C)c(Cc4ccccc4)c(=O)oc3c2)c1	.	8%	-21%[46.1 µM]	1%	.	.	.	2%
COc1ccc(CCNC(=O)CCOc2ccc(C(C)(C)C)cc2)cc1OC	.	14%	?	-18%	.	.	.	7%
COc1ccc(C2=NOC(C(=O)NCc3ccccn3)C2)cc1 (centres undefined)	1.3%	-17%	3%	0%	0%	-2%	-6%	5%
CCc1ccc(NC(=O)C2CCN(S(=O)(=O)c3c(C)noc3/C=C/c3ccco3)CC2)cc1	-19%	2%[46.1 µM]	6%[46.1 µM]	?	.	.	-27%	.
CCC(=O)Nc1sc2c(c1C(N)=O)CCC2	-2.4%	-6%	3%	5%	-19%	4%	1%	6%
CCN1CCN(CC2CC3C=CC2C3)CC1 (centres undefined)	4.5%	-5%	?	-14%	6%	-9%	-3%	0%
CC(C)Oc1ccc(CCC(=O)NNC(=S)Nc2ccccc2)cc1	.	?	-14%[46.1 µM]	-21%	11%	-1%	.	8%
S=C(NCCCN1CCOCC1)Nc1ccc(-c2nc3ccccc3[nH]2)cc1	.	?	?	7%	.	-1%	.	-14%
CCc1ccc(C2C(C(C)=O)=C(C(=O)OC)Nc3nnnn32)cc1 (centres undefined)	-1.6%	-8%	0%[46.1 µM]	2%	6%	17%	-5%	6%
CCSc1nc2sc3c(c2c(=O)n1-c1ccc(C)c(Cl)c1)CCN(C(C)=O)C3	-3.4%	-19%[46.1 µM]	?	0%	.	.	?	.
Cc1ccc(-c2nnc(N3CCN(c4ccccn4)CC3)c3ccccc23)cc1	-0.8%	?	?	22µM*	-83%	-3%	-23%	-26%

Next structures:
compound	Cruzain Triton	Lassa entry inh	MARV entry inh	2A StopGo	NS1 function inh	SARS PLP yeast	Cruzain inh noDet	RE007 growth inh
O=C(CSc1nccn1Cc1ccc(F)cc1)NCc1ccccc1	-2.1%	16%[46.1 µM]	.	-3%	.	.	-3%	.
CN1CC(c2ccccc2)C2(SC(=S)N(Cc3ccco3)C2=O)C12C(=O)Nc1ccccc12 (centres undefined)	1.3%	?	?	?	-1%	-32%	-19%	12%
CCOc1ccc(-c2cc(C(=O)N3CCN(c4ccccn4)CC3)c3ccccc3n2)cc1	-3.4%	?	?	57%[activator]	-31%	-5%	24%	4%
COc1ccc(-c2nc3ccccc3s2)cc1NC(=O)c1ccc(F)cc1	0.6%	1%[46.1 µM]	-4%[46.1 µM]	0%	.	.	-16%	.
Cc1cc(Cl)cc2sc(=S)[nH]c12	.	?	0%[46.1 µM]	31%[activator]	.	.	.	?
Cc1ccc(OCCn2c(CCNC(=O)C(C)C)nc3ccccc32)cc1	-6.0%	-13%	-2%	-16%	5%	-3%	-9%	-1%
O=[N+]([O-])c1cc(NS(=O)(=O)c2ccc(Cl)nc2)ccc1Cl	.	0%	-16%	1%	.	?	.	-21%
CSCCC(NC(=O)COc1ccccc1)C(=O)N(C)CC(=O)Nc1ccc(Cl)cc1 (centres undefined)	.	-1%	-18%	14%	.	3%	.	-16%
O=C(c1ccco1)N1CCc2[nH]nc(-c3ccc(Cl)cc3)c2C1	.	?	-29%[46.1 µM]	?	-14%	-2%	.	0%
Cc1ccc(C2=Nc3ccccc3N=C(c3ccc(F)cc3)C2)c(O)c1	-0.6%	-7%[46.1 µM]	.	-24%	.	.	12%	.
CN(Cc1nc2ccccc2n1C)C(=O)c1ccco1	.	?	-20%[46.1 µM]	-22%	8%	-8%	.	1%
c1cncc(CNC2CCCCC2)c1	.	1%[46.1 µM]	12%[46.1 µM]	10%	-5%	-3%	.	-3%
CC(=O)Nc1ccc(NC(=O)CS(=O)(=O)c2cn(CC(=O)N3CCCC3)c3ccccc23)cc1	.	-6%	17%	-10%	26%	?	.	1%
CCOc1ccccc1CN1CCN(C/C=C/c2ccc(OC)cc2)CC1CCO (centres undefined)	.	0%	?	-20%	-2%	2%	.	4%
